# Vaccinia mCherry – inhibitors of vaccinia virus infection (mCherry reporter signal) | 310,000 compounds, 0.63% hits | Vaccinia virus mCherry reporter infection, fluorescence; about a quarter of the inactives have no number | Potency, µM (doses to about 36.5 µM), without a hit: at the highest dose activity change, negative = inhibition, most hits filed as inhibitors; active = well fitted inhibition curve with a large enough effect; inconclusive = small, poorly fitted or top-dose-only effect; inactive = no such curve, though single readings can be large or run the other way; tested in A549 cells; note: nearly all actives have a fitted effect of over 35% in size; inactives centre near -10
# Vaccinia Venus – inhibitors of vaccinia virus (Venus reporter) | Vaccinia virus Venus reporter expression, fluorescence | Potency, µM (series often up to 36.5 µM), without a hit: at the top dose activity change, negative = inhibition, hits mostly inhibitors | 330,000 compounds, 0.46% hits | AID 720580; active means well fitted inhibition curve with a large enough effect; inconclusive means small, poorly fitted or top-dose-only effect; inactive means no such curve, though single readings can be large or run the other way; tested in A549 cells; note: nearly all actives have a fitted effect of over 30% in size; inactives centre near -10
# The depositor's hits bear a star; i = inactive; ? = inconclusive; . = not tested or not shown; [ ] = remark or other dose. % is set by controls: 0 for no effect and ±100 for the full control effect; potency is the fitted concentration of half-maximal effect.
SMILES	Vaccinia mCherry	Vaccinia Venus
Cc1ccc(S(=O)(=O)N2CCC(=O)N([C@H](COCc3ccc(Cl)c(Cl)c3)Cc3ccccc3)CC2)cc1	1%	-8%
CC(=O)N1CCc2cc(S(=O)(=O)NC3CCCc4ccccc43)ccc21 (centres undefined)	?	-29%
CCOC(=O)CN1C(=O)/C(=C/c2c(F)cccc2Cl)Oc2ccccc21	-26%	-3%
O=C(OCC1CC(c2ccccc2Cl)=NO1)c1ccc(Br)cc1 (centres undefined)	-14%	-7%
Cn1ccc2c(N3CCOCC3)cc3c(c21)C1CCC3C1 (centres undefined)	19%	-8%
Cc1ccnc(Nc2nc(-c3ccc(Cl)cc3)cs2)c1	?	-2%
C[N+](C)(C)c1ccc(/C=C/c2ccnc3ccccc23)cc1	233%[activator]	97%[activator]
Cc1ccc(-n2c(/C=C/c3cccc(C(F)(F)F)c3)nc3ccccc3c2=O)cc1	-16%	-15%
Cc1cccc(-c2c(NC(=O)c3ccco3)oc3ccc(Cl)cc3c2=O)c1	-1%	-16%
COCCN(C(=O)c1ccco1)c1nc(-c2ccccc2)cs1	i	-19%
CC1=C(C(=O)N(C(C)C)C(C)C)CC(CC(=O)NCc2cccs2)C(=O)N1Cc1ccc(C(C)(C)C)cc1 (centres undefined)	6%	-15%
Cc1cc(C)c(C(=O)CSc2n[nH]c(-c3ccncc3)n2)c(C)c1	-13%	-7%
CCn1ccc2cc(S(=O)(=O)N3CCCN(C(=O)NCCOC)CC3)ccc21	-12%	-2%
CCc1nc2ccc(C(=O)Nc3cccc(NS(C)(=O)=O)c3)cn2c1N(CC)Cc1cccc(Br)c1	-13%	-15%
CC(C)OC(=O)C(C)Nc1n[nH]c(=S)[nH]c1=O (centres undefined)	-1%	-8%
Cc1cc(C)n(-c2nc(O)cc(=O)[nH]2)n1	.	-1%
CCOc1ccc(NC(=S)N2CCN(S(=O)(=O)c3ccc(OC)cc3)CC2)cc1	-10%	-20%
CCOc1ccc(NC(=O)CN(c2cc(C)cc(C)c2)S(=O)(=O)c2c(C)noc2C)cc1	18%	-2%
COc1ccc(NC(=O)c2ccco2)cc1S(=O)(=O)N1CCOCC1	-12%	-10%
COc1ccc(C(CC(=O)O)NC(=O)COc2ccccc2)cc1 (centres undefined)	-4%	-15%
COc1cc(CNc2ncnc3c2ncn3[C@H]2CN(Cc3cccc4ccccc34)C[C@@H](CO)O2)cc(OC)c1OC	-25%	-22%
N#Cc1c(N2CCCCC2)nc(N)c2c(N)nc3c(c12)CC(CCl)O3 (centres undefined)	-14%	-8%
O=C1Nc2ccc(F)cc2C12Nc1ccccc1-c1nnc(SCc3ccccc3Cl)nc1O2 (centres undefined)	.	-13%
CC/C(=N\NC(=O)c1ccccc1Cl)c1ccc(Br)s1	i	-25%
COc1ccc(-n2cc(C(=O)N(C)c3cc(C)ccc3OC)c3ccccc3c2=O)cc1	-3%	-16%
O=C(Nc1ccccc1Cl)c1cc(C2CCCN(C(=O)CCCc3ccccc3)C2)on1 (centres undefined)	-2%	2%
CC(C)(C)n1nnnc1C(c1cccs1)N1CCN(c2ccccc2)CC1 (centres undefined)	-13%	-8%
O=c1[nH][nH]c(=O)c2c1[nH]c(=S)n2Cc1ccccc1	i	-6%
Cc1cccc(-c2nc3c(s2)CCc2onc(-c4ccc(Br)cc4)c2-3)c1	-8%	-9%
CC(=O)N(c1ccc(Br)cc1)C1C=CS(=O)(=O)C1 (centres undefined)	11%	4%

# Four of these compounds in a different format:
CC1=C(C(=O)N(C(C)C)C(C)C)CC(CC(=O)NCc2cccs2)C(=O)N1Cc1ccc(C(C)(C)C)cc1 (centres undefined)
  Vaccinia mCherry = 6%
  Vaccinia Venus = -15%

Cc1cc(C)c(C(=O)CSc2n[nH]c(-c3ccncc3)n2)c(C)c1
  Vaccinia mCherry = -13%
  Vaccinia Venus = -7%

CCn1ccc2cc(S(=O)(=O)N3CCCN(C(=O)NCCOC)CC3)ccc21
  Vaccinia mCherry = -12%
  Vaccinia Venus = -2%

CCc1nc2ccc(C(=O)Nc3cccc(NS(C)(=O)=O)c3)cn2c1N(CC)Cc1cccc(Br)c1
  Vaccinia mCherry = -13%
  Vaccinia Venus = -15%

# Next part:
SMILES	Vaccinia mCherry	Vaccinia Venus
O=S(=O)(Nc1ccccc1)N1CCCCC1	?	8%
CCCN1CCCC(C(=O)c2cc(C)c(OC)c(C)c2)C1 (centres undefined)	-20%	-13%
O=c1cc(O)n(-c2ccccc2F)c(=S)[nH]1	-2%	-10%
COc1ccc(C(=O)O/N=C(/C)c2cccs2)cc1	.	2%
O=C1c2ccccc2C(Nc2ccc(S(=O)(=O)N3CCCCC3)cc2)N1Cc1ccco1 (centres undefined)	i	-13%
CCOC(=O)C1CCN(C(=O)Nc2c(-c3ccccc3)noc2C)CC1	-8%	-6%
CCOC(=O)C1CCCN(C(=O)c2cc(C(C)(C)C)nn2C)CC1 (centres undefined)	i	2%
C[C@H]1CN([C@@H](C)CO)C(=O)CCCn2nncc2CO[C@@H]1CN(C)C(=O)c1ccncc1	-13%	-5%
O=C(O)c1cc(NC(=O)c2ccc3c(c2)C(=O)N(Cc2ccccc2)C3=O)cc(C(=O)O)c1	i	-8%
O=C(CN1N=C(c2ccccc2)CCC1=O)NCc1ccccc1	-4%	-3%
Cc1cccc(C)c1NC(=O)C(c1ccccc1)N1CCN(C)CC1 (centres undefined)	-13%	-26%
COCCNC(=O)c1cc(-c2ccccc2)nn1Cc1cc(C)no1	i	-9%
CCc1c(O)nc2sc3ccccc3n2c1=O	.	-26%
COC(=O)c1ccc(C2C(C#N)=C(N)Oc3cc(N)ccc32)cc1 (centres undefined)	-19%	-16%
CCn1c(=O)[nH]c2cc(C(=O)Nc3cc(C)cc(C)c3)ccc2c1=O	-2%	-14%
Cc1cc(-c2ccc(C)c(S(=O)(=O)Nc3cccc(C)n3)c2)on1	-25%	-25%
Cc1cc(C)c2nc(SCC(=O)NCC3CCCO3)c(C#N)cc2c1 (centres undefined)	-5%	-6%
NS(=O)(=O)c1cccc(NC(=O)CN2CCC(Cc3ccccc3)CC2)c1	?	-11%
CCOc1ccc(NS(=O)(=O)c2ccc(C(=O)N(C)CC(=O)Nc3ccc(OC)cc3)cc2)cc1	-8%	-21%
Cc1cc(C=O)c(C)n1-c1ccc(NC2CCCCC2)c([N+](=O)[O-])c1	-4%	-2%
O=[N+]([O-])c1cc(C(F)(F)F)ccc1N1CCN(CCO)CC1	-15%	-4%
COc1ccc2cc(/C=N/NC(=O)CSCc3ccc([N+](=O)[O-])cc3)c(Cl)nc2c1	i	-4%
O=C(NCc1ccc(F)cc1Cl)c1cc(=O)[nH]c2ccc(S(=O)(=O)N3CCCCC3)cc12	-13%	-7%
O=C(NCc1ccc(N2CCCC2=O)cc1)c1cn(Cc2ccccc2)nn1	-13%	1%
Cc1cc(C(=O)OCC(=O)N(CC(C)C)c2c(N)n(Cc3ccccc3)c(=O)[nH]c2=O)c2ccccc2n1	-13%	-6%
O=C(c1cc(N2C(=O)C3C4CCC(C4)C3C2=O)ccc1Cl)N1CCCCCC1 (centres undefined)	i	-18%
Cc1ccnc(NS(=O)(=O)c2ccc(NC(=O)c3cc(-c4ccccc4)nc4ccccc34)cc2)n1	-14%	-12%
C=CCN1C(=O)c2ccc(C(=O)N3CCN(S(=O)(=O)c4cc(C)ccc4C)CC3)cc2C1=O	-15%	-11%
CCS(=O)(=O)c1nc(S(=O)(=O)c2ccc(C)cc2)c(NCC(C)C)s1	-10%[7.34 µM]	-6%[7.34 µM]
OCCN(CCO)CC(O)COc1ccc(C23CC4CC(CC(C4)C2)C3)cc1 (centres undefined)	-2%	-22%

# (next part)
SMILES	Vaccinia mCherry	Vaccinia Venus
COc1cccc(-c2cnc3c(NC=O)cc(-c4ccncc4)cn23)c1	-16%	-6%
NS(=O)(=O)c1ccc2c(c1)oc(=O)c1cc(S(N)(=O)=O)ccc12	i	-8%
Cc1ccc(CNC(=O)CN2CCCN(Cc3ccc(F)cc3)S2(=O)=O)cc1	-9%	-2%
CCCn1c(N)c(C(=O)CN(C)CC(=O)Nc2cc(C)ccc2C)c(=O)[nH]c1=O	-28%	-21%
CC(=O)N1CCOCCOCCN(C(C)=O)CCOCC1	-2%	-13%
COc1ccccc1CN(C(=O)CCl)C(C(=O)NC1CCCCC1)c1ccncc1 (centres undefined)	-6%	3%
COC(=O)[C@@]12C[C@@H](CC(=O)N3CCOCC3)C(=O)N(CCc3ccc(OC)c(OC)c3)C1=CCC(C)(C)C2	0%	18%
CCOC(=O)C1CCN(C(=O)CCc2c(C)nc3cc(-c4ccc(OC)cc4OC)nn3c2C)CC1	i	-11%
CCN(CC)C(=O)[C@H]1CC(CC(=O)NCCCN(C)C)C(=O)N2CCc3c([nH]c4ccccc34)[C@]12C (some centres undefined)	i	-5%
C#CCN(C[C@H]1[C@H](OC(=O)NCc2ccco2)[C@H](OC(=O)NCc2ccco2)C[C@@H](C(=O)OC)[C@H]1C(=O)OC)S(=O)(=O)c1ccc(C)cc1	-12%	-10%
CCCCC(C(=O)O)C(C)CC(=O)Nc1cccc(C(=O)O)c1 (centres undefined)	-22%	-7%
COc1cc(NC(=O)COC(=O)C=C(C)C)c(C)cc1[N+](=O)[O-]	-2%	-7%
O=C(NNS(=O)(=O)c1ccccc1[N+](=O)[O-])c1cccc(Br)c1	i	-10%
COc1ccc(C(=O)Nc2nnc(CCS(=O)(=O)c3ccc(C)cc3)s2)cc1	i	-27%
COc1ccc(C2Nc3ccccc3C(=O)N2c2cccc3ccccc23)cc1COc1c(C)cccc1C (centres undefined)	-22%	?
CC(C)(C)n1cc(C(=O)c2ccccc2)cc1-c1ccccc1	-4%	-22%
COc1ccc(C(=O)c2cnc[nH]2)cc1	-5%[7.34 µM]	-11%[7.34 µM]
O=C(Nc1nc(-c2ccccc2)cs1)c1ccc(N2CCOCC2)c([N+](=O)[O-])c1	?	?
O=C(O)c1ccc(/C=N/O)cc1	-8%	-11%
Cc1[nH]c2ccccc2c1C(=O)CSc1nncn1C	-7%	6%
COc1ccc(C(=O)CSc2nnc(CNC(=O)c3ccccc3F)n2C)cc1OC	-1%	-12%
Cc1cccc(CN2C(=O)N/C(=C/c3cc(C)n(-c4cc(C)ccn4)c3C)C2=O)c1	.	-10%
CCCC(=O)Nc1ccc2oc(=O)ccc2c1	-6%	2%
COc1cc(C(=O)N(CCCN(C)C)c2nc3c(OC)cccc3s2)cc(OC)c1OC	-3%	-6%
Cc1nnc(NC(=O)CCn2c(=O)oc3ccccc32)s1	-7%	-9%
Cc1ccc(S(=O)(=O)Oc2ccc(/C=C(/NC(=O)c3ccccc3)C(=O)Nc3ccccc3)cc2)cc1	.	0%
O=C(NC1CCCCC1)N1Cc2cc(N3CCCCC3)ccc2-n2nncc2C1	14%	-4%
O=C(O)c1ccc(NS(=O)(=O)c2cc(Cl)sc2Cl)cc1	-4%	1%
CCOc1ccccc1NC(=O)C(C)n1nnc2sc3c(c2c1=O)CCCC3 (centres undefined)	-4%	-10%
Cc1cc([N+](=O)[O-])ccc1NCc1ccccc1	-12%	-7%

# Next part.
SMILES	Vaccinia mCherry	Vaccinia Venus
CC1CCN(C(=O)CSc2ccc(-c3cccc([N+](=O)[O-])c3)nn2)CC1	-7%	-7%
COc1ccc(/C=C2\N=C(SC)NC2=O)cc1	-10%	0%
O=C(c1ccc(N2CCOCC2)c([N+](=O)[O-])c1)N1CCCC(C(F)(F)F)C1 (centres undefined)	-2%	-15%
COc1nnc(-c2ccc(C)c(S(=O)(=O)NCCO)c2)c2ccccc12	.	-24%
CCn1nc(C)c(CNC(=O)CCc2nnc(Cc3c[nH]c4ccccc34)o2)c1C	i	0%
C=CCn1nc(C(=O)Nc2ccc(OC)cc2)cc1-c1sc(NC(=O)c2ccccc2)nc1C	-17%	?
CCn1cc(CN2CCCC(C(=O)c3ccc(-c4ccccc4)cc3)C2)cn1 (centres undefined)	i	-19%
Cc1ccc([N+](=O)[O-])cc1S(=O)(=O)Nc1cccc(-c2ccc(N3CCCC3)nn2)c1	-23%	-15%
COc1ccc(Br)cc1/C=C/C(=O)Nc1ccc2ccccc2c1	-28%	-23%
CCCN(CC(=O)Nc1ccccc1C)C(=O)c1cn2ccccc2n1	-1%	-9%
CC(C)(C)NS(=O)(=O)c1ccc(NS(=O)(=O)c2ccc(F)cc2)cc1	?	-2%
COC(=O)c1ccc(COc2ccc(/C=N/NC(=O)C(=O)Nc3ccc(OC)cc3)cc2OC)o1	-3%[7.34 µM]	4%[7.34 µM]
Cc1cc(C)c2c(CC(=O)Nc3nnc(C(C)C)s3)coc2c1	-29%	?
O=C(O)c1ccc2c(=O)n3c(nc2c1)/C(=C/c1cccc(Cl)c1Cl)CC3	-9%	-14%
CCOC(=O)c1ccc(NC(=O)CSc2nnc(CNc3ccc(C)cc3)n2C)cc1	-28%	-23%
O=C(O)/C=C/c1ccccc1[N+](=O)[O-]	i	0%
CCOc1ccc2nc(NC(=O)C3CCN(C(=O)c4ccco4)CC3)sc2c1	-27%	-23%
CC(C)(C)C1CCc2c(sc(NC(=O)c3ccc(Cl)cc3)c2C(=O)NCc2ccco2)C1 (centres undefined)	i	-5%
CCN1C(=O)[C@@H]2[C@H](C1=O)[C@@H]1C(=O)Nc3ccccc3C(=O)N1[C@@H]2c1ccccc1	i	-8%
Cc1cccc(C(=O)N2CCC(=O)N([C@H](COCc3ccc(Cl)cc3)Cc3ccccc3)CC2)c1	10%	-17%
